Screens from PubChem.
rRNA inh HTS = selective bacterial rRNA inhibition in E. coli; 350,000 compounds, 1.6% hits; E. coli WT GFP vs humanized-ribosome RFP mutants, fluorescence, 24 h; active compounds read low; DMSO median 0, no signal -100; GFP signal change (wild-type ribosome), % (concentration not given with the values); AID 720706;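 active = significant combined selectivity score with lowered wild-type GFP, culture density cut under 30%, mutant RFP and density less affected; inactive = any of these conditions unmet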; also: one replicate is shown; some compounds called inactive have numbers as strong as hits
AF4-AF9 inh = inhibitors of human MLL-AF4/AF9 interaction. P42568. AlphaScreen, biotin-AF4 peptide binding to FLAG-AF9. inhibition, % at 10 µM. 350,000 compounds, 0.47% hits. AID 651704;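 active = every replicate reaching a set inhibition limit, whatever the replicate mean, cut at about 25% in these data; inconclusive = mean inhibition reaches that limit but some replicates miss it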;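 also: 0% = plate neutral control median and 100% = total signal loss; the record names both 10 and 1 µM as test concentration; the first replicate is given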
ALR H2O2 inh = human ALR oxidase inhibition via reduced H2O2 | P55789 | purified ALR, DTT oxidation, H2O2 HRP-luminol luminescence | inhibition, % (concentration not given with the values) | 290,000 compounds, 3.8% hits;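 active = mean and each replicate at 75% or more; inconclusive = only one of the two met; inactive = neither met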;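 also: stock transfer was 7.5 nL into about 7.5 µL; 0% = neutral wells and 100% = wells with inactivated enzyme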
Target sequence (P55789 whole entry, looked up): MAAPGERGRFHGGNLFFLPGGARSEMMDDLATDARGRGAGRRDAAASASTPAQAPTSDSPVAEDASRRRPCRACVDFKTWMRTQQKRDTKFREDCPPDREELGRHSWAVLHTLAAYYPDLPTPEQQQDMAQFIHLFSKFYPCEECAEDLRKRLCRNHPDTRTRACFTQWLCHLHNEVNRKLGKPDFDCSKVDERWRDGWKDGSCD
FGF22 binding = shifts melting point of recombinant human FGF22; Q9HCT0; recombinant FGF22 thermal shift, SYPRO orange fluorescence; percent of sucrose octasulfate shift, DMSO zero; calls only at 9.99 µM; 340,000 compounds, 1.5% hits; AID 651658;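 active = melting point raised past a set limit in the mean and every replicate; inconclusive = no clear call; three in four hits are not shown here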
Target sequence (Q9HCT0 whole entry, looked up): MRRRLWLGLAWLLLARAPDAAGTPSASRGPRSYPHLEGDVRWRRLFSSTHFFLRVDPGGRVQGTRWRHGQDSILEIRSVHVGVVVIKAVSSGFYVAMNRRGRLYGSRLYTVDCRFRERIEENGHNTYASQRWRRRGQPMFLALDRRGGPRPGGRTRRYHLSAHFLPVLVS
Vif A3G = inhibitors of Vif binding to APOBEC3G peptide, primary screen, biochemical, TR-FRET, GST-Vif 1-94, biotin-A3G peptide, dose response retest (AID 1117319). TR-FRET GST-Vif / biotin-A3G peptide binding; higher % means a stronger effect; test concentration not given here; strong numbers were not always called active. one-dose inhibition, %; IC50 in µM for titrated hits. 260,000 compounds, 0.57% hits;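 active = above the screen mean plus three standard deviations and confirmed in dose response; inconclusive = results disagree or hit not tested in dose response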;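 also: Vif residues 1-94 fused to GST binding biotinylated APOBEC3G peptide 110-148; 0% = full assay without inhibitor and 100% = GST in place of GST-Vif; retest series ran down from 100 µM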
HNF4A DNA FP = change in binding of human HNF4 alpha to DNA | activity change, % at 10 µM | 360,000 compounds, 0.3% hits | AID 1224865 | P41235 | HNF4a-FITC DNA binding, fluorescence polarization, 1 h; in the data active = activity change above about 30%, passing the limit was not always enough;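 also: controls were the assay level and a saturating level of protein; the project sought stronger binding though the title names inhibitors; some compounds called inactive have numbers as strong as hits; positive values seem to mean higher polarization but the record does not say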
Target sequence (P41235 whole entry, looked up): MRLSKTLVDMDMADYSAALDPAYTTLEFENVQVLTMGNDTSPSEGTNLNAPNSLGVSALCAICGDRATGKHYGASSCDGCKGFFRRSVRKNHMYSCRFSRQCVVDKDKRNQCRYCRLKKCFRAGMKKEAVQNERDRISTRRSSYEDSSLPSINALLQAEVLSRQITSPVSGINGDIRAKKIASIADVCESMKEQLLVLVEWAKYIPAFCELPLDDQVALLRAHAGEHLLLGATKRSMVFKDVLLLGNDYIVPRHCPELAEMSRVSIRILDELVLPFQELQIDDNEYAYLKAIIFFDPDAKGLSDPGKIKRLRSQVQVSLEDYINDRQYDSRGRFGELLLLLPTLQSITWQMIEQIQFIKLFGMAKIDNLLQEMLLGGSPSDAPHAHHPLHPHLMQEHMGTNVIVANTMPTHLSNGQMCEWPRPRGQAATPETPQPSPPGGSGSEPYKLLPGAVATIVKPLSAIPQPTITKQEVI
E coli growth = E. coli growth inhibition; OD600 absorbance (concentration not given with the values); Escherichia coli growth, OD600, 23 h; active compounds read low; 330,000 compounds, 0.21% hits;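 active = OD600 absorbance below the run mean of sample wells minus 3.6 SD, in any replicate, cut at about 0.56 in these data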;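 also: stock transfer was 300 nL into about 60 µL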
rRNA inh HTS OD600 = also measured in rRNA inh HTS; calls as there; OD600 change, %; measured here: OD600 growth;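 optical density of the mix in the first replicate; 0 = DMSO median and -100 = no signal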
rRNA inh HTS RFP = further read-out of rRNA inh HTS, marked with its call; RFP signal change, %; measured here: RFP humanized mutant strains;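 first replicate; 0 = DMSO median and -100 = no signal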
Starred values were filed as active, the others as inactive; i = inactive; ? = inconclusive; · = not tested or not shown; & = joins results of further samples. The list is partial, so the mix of outcomes need not match the whole.

SMILES	rRNA inh HTS	rRNA inh HTS OD600	rRNA inh HTS RFP	AF4-AF9 inh	ALR H2O2 inh	FGF22 binding	Vif A3G	HNF4A DNA FP	E coli growth
COc1cc(-c2noc(CCCC(=O)NCc3ccccc3)n2)cc(OC)c1OC	·	·	·	·	-5	·	8%	-2.8	0.71
O=C(C[C@H]1CC[C@@H]2[C@H](COC[C@H](O)CN2S(=O)(=O)c2ccc(Cl)cc2)O1)N[C@@H]1CCN(Cc2ccccc2)C1	-28	-64	19	2.7	·	i	·	·	·
NC(=S)Nc1cccc2cnccc12	·	·	·	·	-10	·	20%	2.7	0.67
O=C(CC12CC3CC(CC(C3)C1)C2)N/N=C/c1ccc([N+](=O)[O-])o1	·	·	·	1.6	-47	i	·	-2.5	·
Cc1ccc(S(=O)(=O)N2CCOCC2)cc1NC(=O)CSc1nnc(N)s1	0	3	0.9	0.2	·	i	22%	2.6	0.68
COc1ccc(/C=N/NC(=O)c2cccc(S(=O)(=O)N3CCCC3)c2)cc1O	1	1	-3.3	-1.2	97*	i	?	-0.5	·
COc1cc(C2C3=C(CC(C)(C)CC3=O)OC3=C2C(=O)CC(C)(C)C3)cc([N+](=O)[O-])c1O	0	0	-1.1	2.9	22	i	?	1.7	0.64
C=CC[C@H](CC(=O)N(CCO)Cc1ccccc1)C(=O)N[C@@H](COC(=O)[C@@H](CC=C)Cc1ccc(F)cc1)Cc1ccccc1	-1	-7	-8.8	-2.2	-5	i	·	2.3	·
COC(=O)c1cc2cc(OC)ccc2n1C	4	4	1.6	-2.0	-9	i	·	-0.6	0.69
CC(=O)N1CCOc2ccc(S(=O)(=O)N3C(C)CCCC3C)cc21 (stereo not drawn)	-1	-2	2.7	2.5	-5	i	·	3.5	0.67
O=S(=O)(/N=C/N1CCOCC1)c1ccc(Cl)cc1	·	·	·	·	-11	·	2%	-0.3	·
C[C@H]1CN([C@@H](C)CO)C(=O)c2cc(C#CC(C)(C)O)cnc2O[C@H]1CN(C)C(=O)C1CC1	3	7	-2.2	-6.4	·	i	·	·	·
C[C@@H]1CCCCO[C@@H](CN(C)C(=O)Nc2ccccc2)[C@@H](C)CN([C@@H](C)CO)C(=O)c2cc(NC(=O)C3CCCCC3)ccc2O1	6	7	1.5	2.7	·	i	·	·	·
Cn1cnc(S(=O)(=O)N2C[C@@H](O)COC[C@H]3O[C@@H](CC(=O)NC4Cc5ccccc5C4)CC[C@@H]32)c1	2	11	-1.9	1.5	·	i	·	·	·
CN(C(=O)c1ccc(Oc2ccc([N+](=O)[O-])cc2)cc1)C1CCCCC1	-33	-58	-3.5	2.2	-2	i	·	-1.0	0.64
O=C(CSCc1ccccc1)Nc1cc([N+](=O)[O-])ccc1F	-1	7	4.6	2.5	21	i	·	-0.4	0.74
CC1(C(=O)Nc2ccc(Cl)c(Cl)c2)CCN1C(=O)CC1CCCC1 (stereo not drawn)	-22	-62	12	-2.7	·	i	·	3.1	·
Cc1ccc(NC(=O)CCN2C(=O)c3ccccc3C2=O)c(C)c1	3	9	-2.4	0.4	-12	i	-2%	-3.9	0.66
CCOC(=O)c1c(NC(=O)c2ccco2)sc2c1CCCC2	·	·	·	·	·	·	1%	-1.4	0.7
C=CCn1c(SCC(=O)Nc2cc3oc4ccccc4c3cc2OC)nnc1-c1cnccn1	·	·	·	·	22	·	0%	-5.4	0.68

Rewritten field by field: two of the compounds above
canonical_smiles: C[C@H]1CN([C@@H](C)CO)C(=O)c2cc(C#CC(C)(C)O)cnc2O[C@H]1CN(C)C(=O)C1CC1
  rRNA inh HTS: 3 | rRNA inh HTS OD600: 7 | rRNA inh HTS RFP: -2.2 | AF4-AF9 inh: -6.4 | ALR H2O2 inh: · | FGF22 binding: i | Vif A3G: · | HNF4A DNA FP: · | E coli growth: ·

canonical_smiles: C[C@@H]1CCCCO[C@@H](CN(C)C(=O)Nc2ccccc2)[C@@H](C)CN([C@@H](C)CO)C(=O)c2cc(NC(=O)C3CCCCC3)ccc2O1
  rRNA inh HTS: 6 | rRNA inh HTS OD600: 7 | rRNA inh HTS RFP: 1.5 | AF4-AF9 inh: 2.7 | ALR H2O2 inh: · | FGF22 binding: i | Vif A3G: · | HNF4A DNA FP: · | E coli growth: ·

Next records
SMILES	rRNA inh HTS	rRNA inh HTS OD600	rRNA inh HTS RFP	AF4-AF9 inh	ALR H2O2 inh	FGF22 binding	Vif A3G	HNF4A DNA FP	E coli growth
Cc1noc(C)c1NC(=O)N(C)C[C@H]1Oc2cc(C#CCC(C)C)ccc2S(=O)(=O)N([C@H](C)CO)C[C@H]1C	0	0	0.2	3.9	·	i	·	·	·
Nn1cnc2c(c1=O)C1(CCCCC1)Cc1ccccc1-2	·	·	·	·	1	·	-3%	2.7	0.62
O=C(c1ccccc1F)N1C[C@@H]2[C@H](c3ccccc31)[C@H](CO)N2C(=O)c1cccnc1	1	24	-1.7	-2.3	·	i	·	·	·
O=C(Oc1ccc2c(=O)c(Oc3ccc4ccccc4c3)coc2c1)c1cncc(Br)c1	-32	-41	-12	·	-12	·	7%	-0.3	0.77
Cc1ccc(SC(C)C(=O)Nc2ccccc2C(=O)N2CCOCC2)cc1 (stereo not drawn)	·	·	·	·	-2	·	-2%	-0.1	0.71
O=C(Nc1ccc2c(c1)C(=O)NC2=O)c1ccc(Cl)s1	-3	6	0.8	-1.8	-4	i	-26%	-5.9	0.77
CCS(=O)(=O)Nc1ccc(C(=O)CC2(O)C(=O)Nc3ccccc32)cc1 (stereo not drawn)	·	·	·	·	-5	·	70%	0.7	0.67
N#Cc1ccc(CSc2nnc(-c3cccs3)n2-c2ccccc2)cc1	·	·	·	·	-15	·	11%	2.1	0.69
CC(C)[C@H](NC(=O)c1ccc(Cl)cc1)C(=O)OCC(=O)N1CCN(c2ccccc2)CC1	-11	-17	1.9	4.1	24	i	-6%	4.0	0.62
OC[C@H]1[C@@H](c2ccc(-c3cncnc3)cc2)[C@@H]2CN(CC3CCOCC3)CCCCN12	9	17	1.5	-4.8	·	i	·	·	·
Cc1ccc2oc(=O)cc(CN3CCC(C)CC3)c2c1	·	·	·	·	-20	·	-2%	0.5	0.73
C[C@@H]1CCCCO[C@@H](CN(C)C(=O)Nc2ccccc2)[C@H](C)CN([C@H](C)CO)C(=O)c2cc(NS(=O)(=O)c3cccs3)ccc2O1	-4	-3	2.7	4.2	·	i	·	·	·
COc1ccc(-c2[nH]nc(-c3ccccc3)c2-c2nc3ccccc3[nH]2)cc1	·	·	·	·	-6	·	-2%	0.6	0.69
COc1ccccc1CNC(=O)C(C)Oc1ccccc1 (stereo not drawn)	1	5	0.2	0.9	1	i	1%	1.6	0.64
CN1CCCCN2[C@H](C1)[C@@H](c1ccc(C#CC3(O)CCCC3)cc1)[C@@H]2CO	7	17	-3.8	-0.5	·	i	·	·	·
COc1cccc(OC2(C)CCN(Cc3cccn3-c3nccs3)C2)c1 (stereo not drawn)	10	10	2.5	1.5	·	i	·	4.6	·
Cc1cc(C(F)(F)F)nn1CC(=O)Nc1ccc(Br)c2cccnc12	·	·	·	·	-5	·	-1%	-4.0	0.72
C[C@H](CO)N1C[C@H](C)[C@@H](CN(C)Cc2ccc(C(=O)O)cc2)Oc2ccc(N(C)C)cc2CC1=O	-1	2	-1.2	1.8	·	i	·	·	·
CNC[C@@H]1Oc2c(NS(=O)(=O)c3cn(C)cn3)cccc2C(=O)N([C@H](C)CO)C[C@@H]1C	0	2	-0.8	-3.2	·	i	·	·	·
Cc1cc(C)c(S(=O)(=O)N2CCCc3ccccc32)c(C)c1	-23	-24	-4.1	-21	-23	i	0%	-1.3	0.7
CC(C)NC(=O)c1ccccc1NC(=O)C(C)Oc1ccccc1 (stereo not drawn)	-18	-19	1.0	-1.9	·	·	4%	-0.1	0.68
CCn1cc(/C=N/O)c(C)n1	·	·	·	·	-4	·	1%	1.5	·
CCCCn1nc(C(=O)N[C@@H](CCSC)c2nc3ccccc3[nH]2)c2ccccc2c1=O	·	·	·	·	-3	·	23%	-1.9	·
COc1cccc(C#Cc2ccc([C@H]3[C@H]4CN(C(=O)c5ccccc5)CC(=O)N4[C@H]3CO)cc2)c1	-2	-28	15	0.5	·	i	·	·	·
CCOC(=O)c1c(C)n(C)c2ccc(OCC(N)=O)cc12	-1	-3	-2.5	-7.9	-34	i	3%	1.4	0.75
CC1(C(=O)NS(=O)(=O)c2ccc(C#N)cc2)CCN1C(=O)Cc1cc(F)ccc1F (stereo not drawn)	10	11	1.8	-2.2	·	i	·	-3.0	·
O=C(O)CCCNS(=O)(=O)/C=C/c1ccccc1	5	0	1.8	-2.6	-11	i	-3%	-0.2	0.71
COc1ccc(C2=NOC(C(=O)N3CCN(C(=O)c4ccco4)CC3)C2)cc1OC (stereo not drawn)	15	10	12	-1.2	-13	i	-11%	-0.9	0.65
COc1ccc(/C=C/C(=O)c2ccc3c(c2)OCO3)cc1OC	-8	-4	-0.4	3.0	·	i	-6%	-2.4	0.7
C[C@@H]1CN([C@H](C)CO)C(=O)c2cccc(NC(=O)CCCCCC(=O)Nc3ccccc3N)c2O[C@@H]1CN(C)Cc1ccc(Cl)c(Cl)c1	-7	-8	-0.1	0.8	·	i	·	·	·
CCCCCn1c(=NC(=O)c2ccco2)c(C(=O)OCC)cc2c(=O)n3ccccc3nc21	-6	-18	0.1	-0.8	-2	i	0%&4%	2.8&7.6	0.65
O=C(/C=C/c1ccco1)N1CCN(S(=O)(=O)/C=C/c2ccccc2)CC1	12	3	4.2	0.2	0	i	6%	-2.3	0.72
COc1ccc2c3c([nH]c2c1)[C@@H](CO)N(C(=O)C1CCCCC1)CC31CN(C(=O)NC(C)C)C1	0	7	-3.7	0.5	·	i	·	·	·
CC1CN(c2cc(-c3ccccc3)c3ccccc3n2)CC(C)O1 (stereo not drawn)	·	·	·	·	-12	·	2%	-3.8	0.74
CC1CCN(S(=O)(=O)c2cnc[nH]2)CC1	7	13	-0.5	3.8	-2	i	·	-0.1	0.7
N#Cc1cccc(-c2ccc3c(c2)[C@@H]2[C@@H](CCN2C(=O)C2CCCCC2)[C@H](CO)N3)c1	-25	-54	21	4.2	·	i	·	·	·
N#C[C@H]1[C@H](c2ccccc2-c2ccccc2F)[C@H](CO)N1C(=O)C1CCC1	-5	3	4.1	-0.5	·	i	·	·	·
C[C@H]1CCCCO[C@H](CN(C)C(=O)C2CCCCC2)[C@@H](C)CN([C@@H](C)CO)C(=O)c2cc(NS(=O)(=O)c3cn(C)cn3)ccc2O1	-2	-1	0.3	-1.3	·	i	·	·	·
OCCN(CCO)CC(O)CN(c1ccccc1)c1ccccc1 (stereo not drawn)	16	3	-1.0	5.6	99*	i	-1%	2.8	0.68
COCC(=O)N1CC2(C1)[C@H](c1ccccc1)[C@H](CO)N2C(=O)c1ccccc1	2	0	-2.6	-3.1	·	i	·	·	·
Cc1noc(NS(=O)(=O)c2ccc(NC(=O)c3ccccc3NS(=O)(=O)c3ccc(F)cc3)cc2)c1C	-6	1	3.0	-1.6	18	·	0%	-0.3	0.71
O=C(NCc1cc(Cl)cc(Cl)c1)c1ccc2sc([C@@H]3O[C@H](CO)[C@H](O)[C@H](O)[C@H]3O)nc2c1	·	·	·	-1.6	·	i	·	2.1	·
O=C(CN1C(=O)NC2(CCCc3ccccc32)C1=O)NCC(F)(F)F (stereo not drawn)	10	12	0.0	0.3	-1	i	·	0.1	0.7
CCCCCCSc1cc(-c2nc3ccc(Cl)cn3c2NC2CCCCC2)ccc1OC	21	10	0.9	2.3	-7	i	·	10	0.72
COc1ccc(CN(C)C[C@@H]2OCCCC[C@@H](C)Oc3ccc(NC(=O)Nc4c(C)noc4C)cc3C(=O)N([C@@H](C)CO)C[C@@H]2C)cc1	3	12	2.4	-0.6	·	i	·	·	·
